Rce1 inh = inhibitors of yeast Ras-converting enzyme. yeast membranes, quenched prenylated peptide cleavage fluorescence. calls only. 290,000 compounds, 0.27% hits. AID 2563;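 active means fall in fluorescence gain of 50% or more versus controls, with final raw signal at or below 3038400; inconclusive means same 50% fall but final raw signal above 3038400; inactive means fall in fluorescence gain under 50%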;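 further: plate controls were neutral control wells for no effect and wells lacking membranes for full effect; tested at 10 µM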
Target sequence (Q03530 whole entry, looked up): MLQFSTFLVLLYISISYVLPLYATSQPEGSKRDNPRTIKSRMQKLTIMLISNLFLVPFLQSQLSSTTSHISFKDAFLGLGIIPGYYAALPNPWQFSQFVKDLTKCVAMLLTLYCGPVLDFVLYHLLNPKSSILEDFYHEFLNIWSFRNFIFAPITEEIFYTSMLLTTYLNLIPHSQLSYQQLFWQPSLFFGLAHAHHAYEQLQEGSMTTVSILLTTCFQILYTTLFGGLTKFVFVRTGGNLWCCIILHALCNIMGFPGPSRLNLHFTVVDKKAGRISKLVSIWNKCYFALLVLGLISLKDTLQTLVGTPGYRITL
eIF4H inh = inhibitors of RNA binding by human eIF4H; Q15056; eIF4H fluorescence polarization binding assay; inhibition, % at 35 µM; 290,000 compounds, 0.94% hits; AID 2012;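 active means 50% or more with normal probe brightness, or confirmed in later tests; inconclusive means above 50% with abnormal brightness, or retests that disagree; inactive means below 50% or failed in later tests; about a fifth of its hits are not listed in these tables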;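 further: calls also rest on retests at 20 µM and on dose response follow-up; 0% = protein and probe with vehicle and 100% = probe without protein; strong numbers were not always called active; many hits fall short of the cut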
CSC inhib = blocks cancer stem cells; 300,000 compounds, 1.1% hits; inhibition, % at 7.5 µM; cancer stem cell-like cells viability, luminescence;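 active means mean at 75% or more and at least half the replicates too; inconclusive means mean and replicates disagree; tested in HMLE shEcad cells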;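 further: 0% = median of negative and 100% = median of positive control wells; the first replicate is given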
MT1-MMP act inh = inhibitors of human MT1-MMP activation; P50281; HT1080 RFP-PRO-GFP cells, GFP/RFP ratio fluorescence, overnight; percent of plate control window, DMSO zero; GFP/RFP ratio change, % at 20 µM; 360,000 compounds, 0.061% hits; AID 651647;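 active means GFP/RFP ratio change of at least 30% with cell ATP level not reduced by more than half and red fluorescence within 50% of control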; further: strong numbers were not always called active
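Material – HT1080 RFP-PRO-GFP cells · Control set – DMSO wells and RFP-L50D-GFP cells · Incubation – overnight cell settling, then overnight compound exposure, 37 °C, 5% CO2 · Compound dosing – single-point 20 µM compound, 1% DMSO · Read-out – GFP/RFP fluorescence ratio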
Yeast UUG start = yeast start codon fidelity modulation; S. cerevisiae UUG-firefly luciferase reporter, luminescence/redox ratio; activity score, % at 18.7 µM; 350,000 compounds, 0.13% hits; AID 602363;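 active means replicate mean at a twofold rise or more, about +100% in these data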;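 further: firefly luciferase made from a UUG start codon reports start codon fidelity; reporter light over untreated wells divided by growth signal over untreated wells; some hits fall short of that in this replicate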
HIV Env fusion = blocks HIV Env-driven cell-cell fusion; HeLa-JRFL Env/CEM21 cell fusion, luciferase; inhibition, % at 12.3 µM; 360,000 compounds, 1.1% hits; AID 651610;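 active means mean replicate inhibition score of at least 50 and every replicate individually at or above 50; inconclusive means only one of the two criteria met; inactive means mean below 50 and not all replicates reaching 50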;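 further: 0% = plate neutral controls and 100% = maraviroc near 300 nM; one replicate is shown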
PABP FP inh = PABP-poly(A) binding inhibition | PABP-poly(A) RNA binding, fluorescence polarization | P11940 | inhibition, % at 35 µM | 290,000 compounds, 1% hits;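 active means 50% or more with normal probe brightness, or confirmed in later tests; inconclusive means above 50% with abnormal brightness, or retests that disagree; inactive means below 50% or failed in later tests; about a fifth of its hits are not listed in these tables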;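 further: calls also rest on retests at 20 µM and on dose response follow-up; controls were probe without protein and protein plus probe with vehicle; some compounds called inactive have numbers as strong as hits; many hits fall short of the cut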
MT1-MMP act inh RFP = second read-out of MT1-MMP act inh, no call of its own (marks repeat the call); RFP signal change, %; measured here: RFP expression control read;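 0 = vehicle wells; hits needed this value within 50% of zero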
* = called active by the depositor; i = inactive; ? = inconclusive; . = not tested or not shown; + = active, no number.

SMILES	Rce1 inh	eIF4H inh	CSC inhib	MT1-MMP act inh	MT1-MMP act inh RFP	Yeast UUG start	HIV Env fusion	PABP FP inh
COc1ccccc1C(=O)N1CCN(Cc2cn[nH]c2-c2ccc(F)cc2F)CC1	i	-2	.	-2	1	-14	30	-2
CC(=O)Nc1nonc1-c1nc2ccccc2n1Cc1nnc(C)o1	i	16	-14	-2	9	-22	-108	15
O=C(C(=O)N1CCc2ccccc2C1)c1c[nH]c2ccccc12	i	0	-12	0	0	.	4	-2
CCN(CC)S(=O)(=O)c1ccc(C(=O)NNC(=O)C2CCN(S(=O)(=O)c3ccc(Cl)cc3)CC2)cc1	i	-5	-9	4	-2	-17	.	-4
CCOc1nc(SCCOc2ccc(C)cc2)nc(N(C)C)n1	.	-10	28	-10	0	26	.	8
CN1CCN(c2nc3c(c(=O)n(C)c(=O)n3C)n2Cc2ccccc2Cl)CC1	i	6	-5	-5	0	7	7	-11
Nc1ccccc1-c1ccn[nH]1	.	.	.	2	3	-10	5	.
O=C(Nc1cc(F)ccc1F)N1CCN(c2ccnc3cc(Cl)ccc23)CC1	i	-6	1	-1	-12	.	17	-6
Cc1nc(SCC(=O)OCc2ccccc2)c2c(=O)n(C)c(=O)n(C)c2n1	i	11	2	-3	-5	-2	4	11
COC(=O)CCCn1nc(NC(=O)c2ccco2)cc1C	i	7	-1	-1	3	8	4	12
CC1(C)CC2CC(C)(CN2C(=O)COC(=O)c2cc(Cl)cc(Cl)c2N)C1 (centres undefined)	i	-3	-5	-8	-4	2	.	-6
COc1cccc(NC(=O)C(C)NS(=O)(=O)c2ccc(Br)cc2)c1 (centres undefined)	i	5	-4	-1	2	-4	19	2
CCN(CC)S(=O)(=O)c1cc(NS(=O)(=O)c2cc(Cl)ccc2Cl)ccc1C	i	-8	-9	-1	-5	-7	.	-14
Cc1ccc(S(=O)(=O)NN/C(=N/S(=O)(=O)c2ccccc2)c2ccccc2)cc1	i	-1	-6	-3	3	-9	-9	-2
O=C(O)c1cccc(-n2cnnn2)c1	i	-6	-7	-2	2	-15	.	14
Cc1cc(C)nc(SCC(=O)Nc2ccccc2[N+](=O)[O-])n1	i	-5	-1	5	2	9	28	1
O=C(N/N=C/c1ccc(Cl)cc1Cl)c1n[nH]c2c1CCCC2	i	-5	-2	-2	-10	.	27	-11
CCN1CCN(C(=O)N(Cc2ccc(Cl)cc2)S(=O)(=O)c2ccc(C)cc2)CC1	i	.	-16	4	5	-10	-3	.
O=C(Nc1cccc2ncccc12)C(c1ccccc1)c1ccccc1	i	5	-3	1	5	.	-9	-5
O=C(CSc1nnc(-c2ccco2)n1Cc1ccccc1)c1ccc(F)cc1	i	12	-5	-5	0	.	0	7
Cc1cccc(C(=O)NNC(=O)c2ccccc2)c1	i	1	4	4	4	.	4	8
CC(=O)O[C@]1(C(C)=O)CCC2C3C=C(C)C4=CC(=O)CC[C@]4(C)C3CC[C@@]21C (some centres undefined)	i	-2	-5	-3	-2	-6	-64	-16
Cn1c(Cn2nnc3ccccc32)nnc1SCC(=O)N1CCc2ccccc21	i	-11	-5	-5	4	-11	.	25
O=C(NCc1cccc(Cl)c1)C1CCC(=O)N(CCN2CCOCC2)C1 (centres undefined)	i	2	-7	-14	-3	-13	5	3
O=C(CN1CCN(Cc2ccccc2)CC1)Nc1cccc(Cl)c1Cl	.	.	.	0	1	-3	-11	.

5 entries out of the list, arranged by molar mass, descending.
SMILES	Rce1 inh	eIF4H inh	CSC inhib	MT1-MMP act inh	MT1-MMP act inh RFP	Yeast UUG start	HIV Env fusion	PABP FP inh
CCN(CC)S(=O)(=O)c1cc(NS(=O)(=O)c2cc(Cl)ccc2Cl)ccc1C	i	-8	-9	-1	-5	-7	.	-14
COc1ccccc1C(=O)N1CCN(Cc2cn[nH]c2-c2ccc(F)cc2F)CC1	i	-2	.	-2	1	-14	30	-2
Cn1c(Cn2nnc3ccccc32)nnc1SCC(=O)N1CCc2ccccc21	i	-11	-5	-5	4	-11	.	25
O=C(N/N=C/c1ccc(Cl)cc1Cl)c1n[nH]c2c1CCCC2	i	-5	-2	-2	-10	.	27	-11
O=C(O)c1cccc(-n2cnnn2)c1	i	-6	-7	-2	2	-15	.	14

More results
SMILES	Rce1 inh	eIF4H inh	CSC inhib	MT1-MMP act inh	MT1-MMP act inh RFP	Yeast UUG start	HIV Env fusion	PABP FP inh
CCOc1ccccc1NC(=O)CSc1nc2cc(O)ccc2c(=O)n1-c1ccc(OC)c(OC)c1	i	6	16	-2	-2	-6	6	1
O=C(NCC1CCCO1)c1nn2c(C(F)(F)F)cc(-c3ccc(Br)o3)nc2c1Br (centres undefined)	i	8	.	-6	-4	-4	-11	14
COc1ccc(C(C)=O)cc1COC(=O)c1cccc(N(C)C)c1	i	-3	-12	3	-4	-25	.	-1
CCOC(=O)c1c(C)[nH]c(C)c1C(=O)CSc1nnc(-c2ccncc2)n1C	i	2	-14	4	6	1	0	4
COc1ccc(C)cc1N(CC(=O)N1CCOCC1)S(C)(=O)=O	i	-4	-14	1	1	-17	7	2
Oc1ccc2oc3c(c2c1C=NCc1ccncc1)CCCC3	i	28	11	-17	2	-14	7	15
COc1ccccc1N1CCN(C(=O)c2ccc3c(c2)CCN3S(=O)(=O)c2ccccc2)CC1	i	-7	-4	4	-10	-1	7	1
CCOC(=O)c1[nH]c2ccccc2c1NC(=O)c1ccc(S(=O)(=O)N2CCCCC2)cc1	i	-4	-2	1	-1	-25	-19	-5
C/C(Cc1ccccc1)=N\NC(=O)c1cc(C(C)(C)C)[nH]n1	i	-7	7	0	4	.	24	-6
Oc1cc2ccccc2cc1-c1n[nH]c(=S)n1Cc1ccco1	i	18	-18	-9	-8	.	2	1
S=C(NC1CCCCC1)N1CCc2[nH]c3ccccc3c2C1	i	12	-5	0	8	.	18	-4
COc1cccc(N2CCN(S(=O)(=O)c3ccc4nc(-c5ccccc5)[nH]c4c3)CC2)c1	i	3	6	-8	-11	-16	.	-4
CCOC(=O)[C@H]1[C@H]2COc3ccccc3[C@@H]2N2C(=O)c3cc(OC)ccc3NC(=O)[C@@]12C	.	.	10	-2	0	-12	-147	.
CC(C)Oc1ccccc1C(=O)NC(CO)C(=O)O (centres undefined)	i	3	-14	0	2	.	-6	-3
Cn1nccc1C(=O)Nc1cc(Cl)ccc1Cl	i	.	3	1	3	-21	-98	.
OC(COc1ccc(CN2CCSCC2)cc1)CN1CCCCC1 (centres undefined)	i	6	-1	-3	4	.	-60	-1
CCOc1cc(S(=O)(=O)N(Cc2ccccc2)Cc2ccccc2)c(OCC)cc1-n1cnnn1	+	-3	.	4	-10	-1	63*	0
Cc1ccc(C(=O)Nc2ccc3c(c2)C(=O)N(C)C3=O)c(C)c1	i	-6	-8	5	6	-14	-31	-10
COC(=O)CC1Oc2ccc(C)cc2NC1=O (centres undefined)	i	-1	.	3	4	-7	-18	4
COC(=O)c1ccc(CS(=O)(=O)c2ccc(C)cc2)o1	i	2	-12	1	1	-13	-12	22
O=c1cc(-c2ccc([N+](=O)[O-])cc2)c2ccc(O)cc2o1	i	20	19	-16	-4	-15	19	0
CCOc1ccccc1NC(=O)CSc1nnc(Cn2c(=O)sc3ccccc32)n1C	.	-5	-19	-1	2	6	9	6
Cc1ccc(-c2cc(C(=O)OCC(=O)Nc3ncc(C(F)(F)F)cc3Cl)c3ccccc3n2)cc1	i	4	12	-1	4	.	.	2
O=C(O)CSCc1cn2cc(Cl)ccc2n1	i	1	-15	4	2	-18	.	6
CC(C)c1ccccc1NC(=O)COC(=O)Cc1ccsc1	i	5	-3	3	2	5	16	0

(next part)
SMILES	Rce1 inh	eIF4H inh	CSC inhib	MT1-MMP act inh	MT1-MMP act inh RFP	Yeast UUG start	HIV Env fusion	PABP FP inh
O=C(Cc1ccccc1)c1ccc2c(c1)OCCO2	i	-4	6	3	4	-16	-17	-3
CCOC(=O)C1C(=O)NC(SCC(=O)OC)=C(C#N)C1c1ccccc1OCC (centres undefined)	i	-9	4	-3	-7	-17	.	-5
Cc1ccc(C(=O)NNC(=O)C2CCCN(c3ncccn3)C2)cc1 (centres undefined)	i	-8	.	1	5	-9	.	-7
Cc1ccc(C(=O)Nc2ccccc2N2CCOCC2)cc1S(=O)(=O)N1CCOCC1	.	.	.	-1	1	-27	-9	.
COc1ccc(-c2c(C)cc3oc(=O)cc(-c4ccccc4)c3c2C)cc1OC	.	.	.	1	-5	-3	-42	.
O=C(c1ccc(S(=O)(=O)N2CCOCC2)cc1)N1CCOCC1	i	-1	-25	1	4	-7	4	5
Cc1cc(C)nc(-n2nc(C)cc2NC(=O)c2ccc(F)cc2F)n1	i	-2	5	2	1	-28	-16	3
OC(CCCCN1CCCCC1)c1ccccc1 (centres undefined)	i	4	-16	2	2	-17	.	2
CC(=O)c1c(OC(=O)c2cccc(Cl)c2)c2ccccc2n1C	i	-7	-16	-3	2	.	10	-6
O=C(C1CCCN1S(=O)(=O)c1cccc2cccnc12)N1CCc2ccccc2C1 (centres undefined)	i	-8	-11	-5	-1	-10	1	3
Cc1csc(Sc2ccc(S(=O)(=O)N3CCCC3)cn2)n1	i	-7	36	-4	-2	.	28	-9
COCC(=O)N(Cc1cc2cc(C)ccc2[nH]c1=O)c1ccc(C)c(C)c1	i	-1	-21	-11	-4	16	8	-3
NS(=O)(=O)c1ccc(CCNC(=O)CN2CCN(Cc3cccc(C(F)(F)F)c3)CC2)cc1	i	13	-6	-4	-19	3	?	15
Cn1nnnc1SCC(=O)N1CCc2ccccc21	i	-8	-2	-2	2	.	-6	-8
Cc1cc(C)cc(C(=O)NCC(=O)N2CCN(c3cccc(Cl)c3)CC2)c1	i	-5	7	-1	-16	-6	0	6
Cc1cc(S(=O)(=O)N2CCN(c3ccccn3)CC2)c(C)cc1Cl	i	4	36	1	-5	2	-12	4
C#CCOCCOCCOCCNc1nc(N2CCN(C(=O)[C@H](Cc3ccc(O)cc3)n3cc([C@@H](N)C(C)CC)nn3)CC2)nc(N2CCN(C(=O)[C@H](Cc3cc4ccccc4[nH]3)n3cc([C@@H](N)C(C)CC)nn3)CC2)n1 (some centres undefined)	i	20	-11	3	3	1	.	30
O=C(NCCc1ccc(Cl)cc1)c1ccc(CNc2c(N3CCOCC3)c(=O)c2=O)cc1	i	6	-1	1	1	-9	-3	6
CC(C)(O)C#Cc1ccc(CN2CCN(Cc3ccccc3)C(CCO)C2)cc1 (centres undefined)	i	-8	-3	-5	-2	-15	0	-5
CC(C)(C)OC(=O)COc1ccc(/C=N/NC(=O)CN2CCCCC2)cc1	i	-8	.	1	-5	-3	-5	-3
CN(C)c1ccc(CN(C(=O)/C=C/c2ccccc2Cl)C2CCS(=O)(=O)C2)cc1 (centres undefined)	i	-9	-19	-1	-2	-5	-7	2
CC1(C)NC(=O)N(CC(=O)OCC(=O)Nc2sccc2C#N)C1=O	i	?	-4	-6	2	.	2	-12
O=C1CC(c2ccccc2)=Nc2ccccc2N1Cc1ccccc1	i	-7	-10	0	2	.	1	2
NC(=O)C1(N2CCCCC2)CCN(S(=O)(=O)c2cc(Cl)ccc2Cl)CC1	i	-1	-11	-1	2	-8	-34	6
CCN(CC)CCN(C(=O)c1ccc2c(c1)CCCC2)c1nc2ccc(F)cc2s1	i	3	18	4	7	.	-28	3
Cc1cc(-c2ccccc2)n(-c2ccc(C(=O)NC(C)C)cc2)n1	i	-1	-7	3	2	-53	-57	-13
CSc1nc(N(C)C)nc(N(C)C#N)n1	i	2	.	2	4	.	13	17
NS(=O)(=O)c1ccc(CCNS(=O)(=O)c2ccccc2)cc1	i	-4	-9	-2	-1	.	-5	2
COc1ccccc1-n1ccnc1SCC(=O)NC(C)(C)C	.	-3	2	1	2	-1	-19	2
Cc1cnc(NC(=O)Nc2ccc(OCc3ccccc3)cc2)c(Br)c1	i	-8	-3	4	2	-1	3	0

Source: PubChem BioAssay (several laboratories)
